High-throughput results deposited in PubChem BioAssay by several laboratories.
Calb FLC: C. albicans growth inhibition with fluconazole, primary screen, CaCi-2 strain, Alamar Blue fluorescence | C. albicans CaCi-2 (fluconazole-resistant clinical isolate) + fluconazole, 48 h | growth inhibition, % (no concentration beside the values) | hit rate 0.57% among 300,000;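 active = most replicates above 75%; inconclusive = exactly half above 75%; inactive = most below 75%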;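 also: all wells also contain fluconazole at 8 µg/ml as a sub-toxic cotreatment; 0% = median of DMSO wells and 100% = median of geldanamycin control wells; wells of about 8 µL received 7.5 nL stock; the first replicate is given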
ALR H2O2 inh: inhibitors of human ALR sulfhydryl oxidase, primary screen, biochemical, H2O2 detection, HRP-luminol luminescence, single point; FAD-linked sulfhydryl oxidase ALR (Homo sapiens), P55789; purified ALR, DTT oxidation; inhibition, % (concentration not given with the values); hit rate 3.8% among 290,000; AID 485317, 2010;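 active = mean and each replicate at 75% or more; inconclusive = only one of the two met; inactive = neither met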;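 also: stock transfer was 7.5 nL into about 7.5 µL; 0% = neutral wells and 100% = wells with inactivated enzyme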
Target sequence (P55789 whole entry, looked up): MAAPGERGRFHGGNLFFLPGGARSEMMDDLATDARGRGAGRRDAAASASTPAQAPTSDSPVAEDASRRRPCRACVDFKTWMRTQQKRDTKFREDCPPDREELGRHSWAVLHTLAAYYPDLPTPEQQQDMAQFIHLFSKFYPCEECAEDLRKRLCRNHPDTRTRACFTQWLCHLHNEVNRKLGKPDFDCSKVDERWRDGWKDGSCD
Vif A3G: inhibitors of Vif binding to APOBEC3G peptide, primary screen, biochemical, TR-FRET, GST-Vif 1-94, biotin-A3G peptide, dose response retest (AID 1117319) | hit rate 0.57% among 260,000 | inhibition, %; hits with a dose series show IC50 in µM | TR-FRET GST-Vif / biotin-A3G peptide binding; higher % means a stronger effect; test concentration not given here; strong numbers were not always called active | Virion infectivity factor (Human immunodeficiency virus type 1 group M subtype B (isolate …;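 active = above the screen mean plus three standard deviations and confirmed in dose response; inconclusive = results disagree or hit not tested in dose response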;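 also: Vif residues 1-94 fused to GST binding biotinylated APOBEC3G peptide 110-148; 0% = full assay without inhibitor and 100% = GST in place of GST-Vif; retest series ran down from 100 µM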
Beta2AR agonist: beta2AR agonists driving receptor internalization, primary screen, cell-based, FAP fluorogen, flow cytometry | response, % (no concentration beside the values) | hit rate 0.43% among 340,000 | Am2.2-beta2AR cells; reference of the scale not given here | AID 504454, 2011 | Beta-2 adrenergic receptor (Homo sapiens), P07550;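 active = response above a set limit, near 3 SD of response in nonfluorescent compounds, cut at about 42% in these data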;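 also: stock transfer was 100 nL into about 11 µL; a reference agonist was the positive control; negative values mostly stem from fluorescent compounds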
Target sequence (P07550 whole entry, looked up): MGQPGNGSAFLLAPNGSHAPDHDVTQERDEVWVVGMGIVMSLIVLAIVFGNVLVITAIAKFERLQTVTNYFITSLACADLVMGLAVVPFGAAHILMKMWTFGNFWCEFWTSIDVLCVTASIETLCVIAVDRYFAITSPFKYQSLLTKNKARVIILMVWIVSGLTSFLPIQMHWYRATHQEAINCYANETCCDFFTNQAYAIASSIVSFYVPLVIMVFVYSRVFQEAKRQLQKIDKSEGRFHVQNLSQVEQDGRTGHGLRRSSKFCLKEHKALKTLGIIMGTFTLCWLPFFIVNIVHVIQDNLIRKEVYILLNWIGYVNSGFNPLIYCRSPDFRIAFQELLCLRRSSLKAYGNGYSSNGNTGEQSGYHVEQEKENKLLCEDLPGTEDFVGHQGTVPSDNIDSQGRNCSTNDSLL
LANA-H2B inh: blockers of LANA interaction with H2A/H2B – biochemical, FP readout, HTS, primary screen. Protein LANA1 (Human herpesvirus 8 type P (isolate GK18)), Q9QR71. cell-free LANA-H2A/H2B peptide, fluorescence polarization. inhibition, % (test concentration not listed). hit rate 0.6% among 320,000; in the data active = inhibition mostly above about 10%, no sharp cut-off; inactive = mostly below about 6.7%;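 also: stock transfer was 7.5 nL into about 10 µL; 0% = median of vehicle wells and 100% = median of positive control wells; one replicate is shown; the record names a cut of 25% in any replicate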
RanGTP-Impb inh: inhibitors of RanGTP-importin-beta interaction, primary screen, biochemical, FRET, CFP-Ran, YFP-importin-beta, homogeneous; Ran GTPase (GTP-bound) - importin-beta complex; cell-free CFP-Ran/YFP-importin-beta FRET ratio; inhibition, % (no concentration beside the values); hit rate 1.1% among 300,000; AID 2216, 2009;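 active = most replicates above 15%; inconclusive = exactly half above 15%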;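 also: 0% = DMSO wells and 100% = Ran loaded with GDP instead of GTP; wells of about 40 µL received 100 nL stock; the first replicate is given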
HNF4A DNA FP: change in binding of human HNF4A to DNA, primary screen, biochemical, fluorescence polarization, FITC-DNA; hit rate 0.3% among 360,000; AID 1224865, 2016; 1 h; Hepatocyte nuclear factor 4-alpha (Homo sapiens), P41235; activity change, % at 10 µM; in the data active = activity change above about 30%, passing the limit was not always enough;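 also: controls were the assay level and a saturating level of protein; the project sought stronger binding though the title names inhibitors; some compounds called inactive have numbers as strong as hits; positive values seem to mean higher polarization but the record does not say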
Target sequence (P41235 whole entry, looked up): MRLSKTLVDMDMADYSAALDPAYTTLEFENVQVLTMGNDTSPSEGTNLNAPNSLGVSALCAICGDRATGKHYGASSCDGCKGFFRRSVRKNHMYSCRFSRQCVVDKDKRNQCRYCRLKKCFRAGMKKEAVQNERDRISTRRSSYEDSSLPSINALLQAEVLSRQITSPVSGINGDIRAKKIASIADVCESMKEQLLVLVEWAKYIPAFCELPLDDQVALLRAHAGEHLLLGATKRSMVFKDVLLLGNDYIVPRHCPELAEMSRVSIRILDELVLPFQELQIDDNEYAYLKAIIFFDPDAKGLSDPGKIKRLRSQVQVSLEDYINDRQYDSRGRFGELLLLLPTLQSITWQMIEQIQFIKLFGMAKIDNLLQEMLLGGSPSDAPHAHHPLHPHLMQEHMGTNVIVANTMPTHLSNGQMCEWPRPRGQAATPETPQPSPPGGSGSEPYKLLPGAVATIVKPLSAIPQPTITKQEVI
* marks the source's active call; other numbers are inactive results; ? = inconclusive; · = not tested or not shown; & = joins results of further samples. Not a hit list (roughly 6.3% active in at least one column).

SMILES	Calb FLC	ALR H2O2 inh	Vif A3G	Beta2AR agonist	LANA-H2B inh	RanGTP-Impb inh	HNF4A DNA FP
Cc1ccc(CSc2nnc(SCC(=O)N/N=C/c3c(C)nn(-c4ccccc4)c3C)s2)cc1	-2	-2	-2%	-7	-0.2	-4.5	-0.1
COc1ccc(CCN(C(=O)c2cccc(F)c2)C2CC(=O)N(c3ccccc3)C2=O)cc1 (configuration not stated)	0	24	·	-9	1.4	?	3.6
COc1c(F)c(F)c(C(=O)Nc2ccccc2N2CCN(C(=O)C(C)C)CC2)c(F)c1F	14	-1	7%&3%	2	6.7	2.1	-1.8
COC(=O)c1c(C)oc(C)c1S(=O)(=O)NC(C)(C)C	2	0	-5%	11	4.8	-4.5	0.0
CC1(C)CC(=O)C(C(c2cccnc2)C2C(=O)CC(C)(C)CC2=O)C(=O)C1	7	7	2%	3	1.3	3.1	1.0
CCN1C(=O)/C(=C/c2ccc(C)s2)SC1=Nc1ccc(OC)cc1	4	0	0%	-17	-1.6	3.7	-0.4
COc1ccc(CN2CCNC(=O)C2CC(=O)NCc2csc(C)n2)c(F)c1 (configuration not stated)	-7	-13	·	1	-3.3	1.9	-0.1
CCCCC(=O)Nc1nc2c(OC)ccc(OC)c2s1	-3	-2	3%	8	2.7	1.8	1.0
CC(C)c1nc(SCC(=O)NC2CCCCC2)c2ccccc2n1	-3	-5	-2%	-6	1.9	-1.5	1.9
CCN(CC)S(=O)(=O)c1ccc(NC(=O)COc2nc3ccccc3nc2N2CCOCC2)cc1	-8	·	·	-16	3.2	5.6	1.1
COc1ccccc1NS(=O)(=O)c1cccc(C(=O)N/N=C(\C)c2ccc3c(c2)OCCO3)c1	8	1	2%	6	-7.6	8.1	3.6
COc1cccc(NC(=O)c2ccc(N3C(=O)C4CC=CCC4C3=O)cc2)c1 (configuration not stated)	-14	18	·	6	5.2	1.1	-6.4
O=C(CSc1nc2ccccc2[nH]1)NCc1ccc(F)cc1	7	-1	-6%	-5	-4.7	-0.1	2.2
N#Cc1ccccc1NCc1ccccc1	-9	-16	26%	1	15*	-1.0	-2.6
COc1ccc(NC(=S)N/C(=N/CS(=O)(=O)c2ccccc2)c2ccccc2)cc1	8	-44	9%	11	-3.6	-1.8	-4.8
COc1ccccc1-c1c(C#N)c(N)nc2c1CCC2	23	1	-4%	6	-4.8	?	-1.9
Cn1cccc1Cc1nnc(SCC(=O)Nc2ccccc2F)n1-c1ccc(F)cc1	0	40	-4%&6%	2	2.0	1.3	-0.6
CN(C)c1nc(NN)nc(Nc2ccc(F)cc2)n1	3	7	-9%	-2	-3.9	1.1	0.1
COc1ccc2c3c(cccc13)OC2=O	-3	-4	·	-9	4.7	-0.9	-2.3
CCc1ccc(N(C(=O)Cc2cccs2)C(C(=O)NC2CCCCC2)c2cn(C)nc2C)cc1 (configuration not stated)	-16	-4	21%	-2	3.3	-0.5	0.1
C/C(=N\Nc1ccc(S(=O)(=O)N2CCCCC2)cn1)c1ccc(O)cc1	·	91*	1%	7	-1.4	·	1.5
O=C(Nc1cccc(F)c1)N1CCCCCC1	3	-6	·	-4	-1.5	0.9	-0.3
CCCCOc1ccc(C(=O)NCC(=O)N2CCN(C(=O)c3ccco3)CC2)cc1	0	·	3%	-12	1.5	0.8	-0.7
N#Cc1nc(COc2ccc(Br)cc2)oc1N1CCN(Cc2ccccc2)CC1	·	·	4%	8	·	·	-3.9
CCOC(=O)C1CCN(C(=O)c2ccc(C)o2)CC1	·	-4	-1%	-3	2.5	·	-5.9
CN1CCN(C(=O)/C(=C/c2cccs2)NC(=O)c2cccs2)CC1	-6	-10	-5%	-14	-5.2	0.3	-2.1
COc1ccc(NC(=O)c2ccc3ccccc3n2)cc1S(=O)(=O)Nc1ccccc1Cl	13	-4	33%	14	-1.7	1.1	-1.6
CC(C)C(CCN1C(=O)CCC1=O)C1CCOC(C)(C)C1 (configuration not stated)	?	-22	2%	1	-11	-3.5	1.5
CC/C(=N\NC(=O)c1c(C)nc2ccccn12)c1ccc(Cl)cc1	2	·	·	-10	-11	2.1	3.5
CCOc1ccccc1C(=O)Oc1cc(C)[nH]c(=O)c1[N+](=O)[O-]	-4	0	·	6	-4.6	5.6	5.8
O=C(N/N=C/c1ccc(O)cc1)c1cc(C2CC2)[nH]n1	-7	99*	·	0	-3.7	-4.8	-0.8
Cc1nnc(SCC(=O)Nc2cccc(S(N)(=O)=O)c2)n1-c1ccccc1	6	1	·	1	-2.2	-5.1	-1.5
Cc1nc2ccc(S(=O)(=O)c3ccc4nc(C)[nH]c4c3)cc2[nH]1	5	-6	-4%	0	2.8	7.6	1.9
Cc1c(F)cccc1NC(=O)c1ccc2c(c1)CCN2S(C)(=O)=O	-4	·	0%	0	5.2	-1.2	-2.0
CCC(=O)N1CCN(c2ccc(NC(=O)c3ccc(-c4ccccc4)cc3)cc2)CC1	-5	·	-1%	·	·	-1.9	·
CCC(=O)Nc1cc(C)c(NC(=O)c2ccccc2OC)cn1	-1	-5	8%	-6	-2.6	4.9	-2.5
FC(F)(F)c1cc(C(F)(F)F)c2ccc(N3CCN(c4ncccn4)CC3)nc2n1	14	0	7%	-7	1.5	3.1	-0.9
CCCN1C(=O)C(O)(C/C(C)=N/O)c2ccccc21 (configuration not stated)	16	-2	-6%	-2	1.6	0.0	0.8
CCCCN(C)CCCNC(=O)C1(O)c2ccccc2NC(=O)N1c1ccc(Cl)cc1 (configuration not stated)	-2	-11	-9%	0	-9.7	-0.7	-1.9
CC1OC(c2ccccc2)OC2COC(c3ccccc3)OC12 (configuration not stated)	·	·	6%	-2	·	·	3.0
O=C(NCc1ccco1)C1CCC(CNS(=O)(=O)c2cccc3cccnc23)CC1 (configuration not stated)	1	-40	-2%	0	0.7	-5.4	1.4
CCOc1ccc(-c2nc(-c3ccncc3)no2)cc1OCC	2	-2	?	-9	-0.5	-2.0	0.8
COC(=O)c1c(C)nn(-c2ccccc2)c1-n1cccc1	-4	5	-4%	-5	0.3	0.2	-4.3
O=S(=O)(c1ccc(S(=O)(=O)N2CCN3CCCC3C2)cc1)N1CCCC1 (configuration not stated)	-1	-2	9%	3	2.5	2.8	0.0
O=C(Nc1ccc2c(c1)OCO2)C(c1ccccc1)N1CCCCC1 (configuration not stated)	-8	-1	0%	3	3.7	3.5	2.4
Cc1nn(-c2ccccc2)c(Cl)c1/C=N/NC(=O)c1ccc(NS(=O)(=O)c2cccs2)cc1	7	-1	14%	·	1.3	3.7	·
COc1cc2c(cc1OC)C(c1ccncc1)CC(=O)N2 (configuration not stated)	-12	-12	6%	2	-3.8	-0.1	-1.4
COc1cc(/C=N/NC(=S)NCCc2ccccc2)cc(OC)c1OC	-4	2	2%	7	-0.1	2.6	-4.3
O=C(CSc1nnc(CNC(=O)c2ccc(F)cc2)o1)NCc1ccc(F)cc1	·	-2	3%	-5	3.8	·	-3.5
COC(=O)CNC(=O)c1cc(-c2ccncc2)nc2ccccc12	-4	0	6%	-1	-3.0	1.1	-3.0
The results go on:
SMILES	Calb FLC	ALR H2O2 inh	Vif A3G	Beta2AR agonist	LANA-H2B inh	RanGTP-Impb inh	HNF4A DNA FP
CCn1c(SC(C)C(=O)Nc2ccc3c(c2)OCCO3)nnc1C1CC1 (configuration not stated)	·	·	7%	-1	·	·	0.0
Cc1cc(OCC(=O)OCC(=O)c2ccc[nH]2)ccc1Cl	·	·	7%	5	·	·	-3.1
CCOC(=O)C(=O)Nc1cc(C)on1	7	-5	-7%	-2	-1.8	0.4	0.6
CN(C)c1ccc(P(=O)(Nc2cccc(C(F)(F)F)c2)N2CCOCC2)c(NC(=O)c2cccs2)c1 (configuration not stated)	-8	·	-104%	-6	4.6	-2.9	1.8
Cc1ccc(-c2noc(CN3CCN(Cc4ccccc4)CC3)n2)cc1	-21	-10	-10%&2%	1	2.2	9.7	8.3
O=C(CCl)N1CCN(C(=O)C2COc3ccccc3O2)CC1 (configuration not stated)	·	12	5%	4	-5.7	·	2.0
Cc1cc(C(=O)NNC(=O)c2ccc(Cl)c(S(N)(=O)=O)c2)c(C)o1	·	·	-1%	-6	7.1	·	8.1
CCOCCCNC(=O)CCN1C(=O)c2ccccc2Sc2ncccc21	0	3	1%	11	0.6	3.4	-0.2
CN(Cc1ccccc1)C(=O)c1ccccc1NC(=O)C1=CSCCO1	-4	5	·	6	5.6	-0.2	8.0
CSc1nc(N2CCOCC2)cc(N2CCOCC2)n1	-12	5	24%	1	-6.5	?	2.1
O=C(NCCc1ccc(Cl)cc1)c1ccc2ccccc2n1	-9	·	·	1	0.6	-0.7	4.5
COC(=O)C1CCN(C(=O)COC(=O)Cc2c[nH]c3ccccc23)CC1	4	-3	14%	10	-2.9	-0.4	-0.2
Cc1[nH]c2ccccc2c1C(=O)CSc1ccc(Cl)cc1	19	1	?	-9	2.6	-4.0	-3.6
O=C(Nc1cccc(S(=O)(=O)C(F)F)c1)c1ccc(S(=O)(=O)N2CCCC2)cc1	8	-3	·	23	-1.7	-0.9	-3.6
CCN(CC(=O)O)S(=O)(=O)c1cc(Cl)ccc1Cl	-12	-4	2%	-4	-5.8	-4.0	-1.0
CC(C)c1ccc(OCC(=O)NCCO)cc1	-12	-11	2%	0	0.6	3.6	1.1
COCCNC(=S)N1CCC(C(=O)c2ccc3c(c2)OCCO3)CC1	-11	-2	7%	1	-0.4	0.6	0.8
COc1ccc(-c2nnc(NC(=O)c3c(OC)cccc3OC)s2)cc1	-3	·	-23%	3	0.7	-0.9	1.1
CSCCC(NC(=O)C1CC1)c1nc2ccccc2[nH]1 (configuration not stated)	-6	-9	?	8	2.2	-1.7	4.1
CCOC(=O)c1cnc2nc(Cc3ccccc3)[nH]n2c1=O	5	0	12%	-5	-2.5	2.2	0.4
COC(=O)COc1ccc(=O)n(-c2ccccc2)n1	-3	2	2%	-1	0.7	1.1	-2.1
CC(=O)Nc1ccc(N2CCOCC2)c(C(=O)Nc2cccc(C)c2)c1	16	50	-1%	1	-2.2	-0.7	-2.3
COc1cccc(C(C(=O)NC2CCCC2)N(C(=O)c2ccco2)C2CC2)c1OC (configuration not stated)	-4	-10	-3%	-3	-5.0	-2.4	-1.1
COc1ccc(NC(=O)Nc2cccc3c2O[C@H](CN(C)S(=O)(=O)c2cccs2)[C@@H](C)CN([C@H](C)CO)C3=O)cc1	·	-5	·	-3	9.2	·	-2.0
COc1cc(/C=C/C(=O)O)ccc1OS(=O)(=O)c1c(C)c(C)cc(C)c1C	·	2	1%	3	-3.1	·	-2.9
O=C(NCc1ccccc1)c1cccnc1N1CCOCC1	3	-2	28%	2	-3.7	1.0	0.1
CCN(CC)S(=O)(=O)c1ccc(-c2nnc(SCc3nnc(-c4ccccc4)o3)o2)cc1	-7	-1	-4%	5	1.0	0.3	-1.4
COc1ccc(S(=O)(=O)n2nc(OC(C)=O)cc2N)cc1	4	98*	-16%	-4	3.2	0.5	-6.7
O=C(NCCNC1CCCCC1)c1ccco1	-1	·	·	10	-4.4	0.6	-0.7
